HPGD inh – HPGD (human) dehydrogenase inhibition; purified HPGD, NADH fluorescence kinetic, PGE2 substrate; Potency, µM, for the others: at the highest dose activity change, negative = inhibition, most hits filed as inhibitors; 4.3% of 150,000 active; AID 894; active = well fitted inhibition curve with a large enough effect (not every such curve was filed as active); inconclusive = small, poorly fitted or top-dose-only effect, or another doubt; inactive = no such curve, though single readings can be large or run the other way;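 also: top concentration of the series not given in the record; plate controls included wells without enzyme; inactives centre near -10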
Target sequence (P15428 whole entry, looked up): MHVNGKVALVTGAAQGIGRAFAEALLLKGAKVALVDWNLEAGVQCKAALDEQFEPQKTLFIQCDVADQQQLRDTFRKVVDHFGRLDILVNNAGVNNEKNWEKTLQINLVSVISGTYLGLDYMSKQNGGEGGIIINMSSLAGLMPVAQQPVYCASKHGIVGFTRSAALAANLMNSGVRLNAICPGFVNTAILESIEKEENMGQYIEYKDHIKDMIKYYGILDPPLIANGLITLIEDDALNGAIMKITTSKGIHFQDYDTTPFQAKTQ
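20 nM HPGD preincubated 15 min at room temperature with compound in 50 mM Tris-HCl pH 8, 0.01% Tween 20. Started with 1 mM NAD+ and 30 uM prostaglandin E2; NADH fluorescence (360/450 nm) read 5 times over 30-s intervals, last minus first.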
Active calls of the source: *; ? = inconclusive. % is scaled to controls: 0 for no effect and ±100 for the full control effect; potency is read from the fitted curve at half-maximal effect. This is a subset; count on the stated rates, not on these rows.

SMILES	HPGD inh
Cc1ccc(C2C(=O)N(C3CCCC3)CC(=O)N2C2CCCCC2)cc1 (stereo not drawn)	-6%
CN(C)c1ccnc(Oc2ccccc2)c1C#N	?
CC1(C)CC2C1CCC1(C)OC1CCC2(C)O (stereo not drawn)	-2%
O=C(O)CSC1=NC(=Nc2cccc(Cl)c2)C2(CCCCC2)N1c1ccccc1	-6%
N#Cc1cnc2ncnn2c1-c1ccccc1	-8%
Cc1ccc(CNc2nc3ccccc3s2)s1	-5%
O=C(CN1CCCc2ccccc21)NCc1ccc2c(c1)OCO2	-19%
Cn1cc(S(=O)(=O)CC(=O)Nc2ccc3c(c2)OCO3)c2ccccc21	-9%
COc1cccc(N2C(=O)C(CC(=O)Nc3ccccc3)N(C3CCCCC3)C2=O)c1 (stereo not drawn)	-9%
Cc1ccc(-c2nnc(SCC(=O)NNC(=O)COc3cccc4ccccc34)n2C)cc1	-8%
COc1ccc(NC(=O)CC2C(=O)N(c3ccc(F)cc3)C(=S)N2NC(=O)c2ccc(Cl)cc2)cc1 (stereo not drawn)	-18%
Cc1ccccc1Cn1nc(C)c(NC(=O)c2cc3nc(-c4ccco4)cc(C(F)(F)F)n3n2)c1C	?
CC(C)c1ccc(-c2cc(C(=O)N3N=C(C(F)F)CC3(O)C(F)F)c3ccccc3n2)cc1 (stereo not drawn)	?
O=C(CCCn1c(=S)[nH]c2ccccc2c1=O)NC1CCCC1	14µM*
O=C(NCc1cccnc1)C(=O)NCC1OCCN1S(=O)(=O)c1ccc(Cl)cc1 (stereo not drawn)	-6%
Cc1ccccc1Cn1nc(C)c(NC(=O)c2noc3c2CCCC3)c1C	-17%
Cc1ccc(Cn2c(SCC(=O)NCC3CCCO3)nc3c(sc4ccccc43)c2=O)cc1 (stereo not drawn)	?
CCn1c(SCC(=O)Nc2ccc3c(c2)OCCO3)nc2c(c1=O)SC(C)C2 (stereo not drawn)	-3%
O=C(Nc1ccc(Br)c(Cl)c1)C1CC1	18µM*
CCOc1ccc(NC(=S)N2CCC(N(C)CC3CCCO3)CC2)cc1 (stereo not drawn)	-3%
CCCCC1CC(CSC(=N)N)OC1=O (stereo not drawn)	-6%
CCC[N+](CC#Cc1ccccc1)(CCC)CC(=O)OCC	-5%
O=[N+]([O-])c1cccc(C(=Nc2cccc(Cl)c2)NO)c1	-13%
COc1ccc(C(=O)NCc2nnc(SCC(=O)Nc3nc4ccccc4s3)o2)cc1OC	-8%
CC(C)CNS(=O)(=O)c1ccc(CCC(=O)NCc2ccco2)cc1	-21%
O=C(c1cnccn1)N1CCC2(CCCN(c3cccc(-c4ccccc4)c3)C2)CC1	-9%
Cc1cc(C(=O)Nc2ccc(C(=O)O)cc2)c(-c2ccccc2)o1	-3%
COc1ccc(C(=O)[C@H](Br)[C@H](Br)C(=O)O)cc1	-13%
CCCn1c(N2CCN(S(=O)(=O)Cc3ccccc3)CC2)nc2ccccc21	-7%
NC(=O)c1cc(N2C(=O)C3CC=CCC3C2=O)ccc1N1CCCCC1 (stereo not drawn)	-24%

Four entries from above, with each value named.
> Cc1cc(C(=O)Nc2ccc(C(=O)O)cc2)c(-c2ccccc2)o1
- HPGD inh = -3%

> NC(=O)c1cc(N2C(=O)C3CC=CCC3C2=O)ccc1N1CCCCC1 (stereo not drawn)
- HPGD inh = -24%

> O=[N+]([O-])c1cccc(C(=Nc2cccc(Cl)c2)NO)c1
- HPGD inh = -13%

> CCCCC1CC(CSC(=N)N)OC1=O (stereo not drawn)
- HPGD inh = -6%

New compounds follow
SMILES	HPGD inh
Cc1cccc(N/N=C(\C(N)=O)C2=NC(C)(C)Cc3ccccc32)c1	-19%
Cc1ccc(NC(=O)CSC2=C(C#N)C(c3ccc4c(c3)OCO4)CC(=O)N2)cc1C (stereo not drawn)	-10%
CCN(CC)c1ccc(C(=O)Nc2cccc(F)c2)cc1	-21%
Cc1ccc(S(=O)(=O)N2CCN(c3ccc(C(F)(F)F)cc3[N+](=O)[O-])CC2)cc1	-18%
CC(C)[C@H](NS(=O)(=O)c1ccc2c(c1)OCCO2)C(=O)OCC(=O)Nc1ccccc1	1%
COCCn1c(C2CCCCC2)nc2sc3ccccc3c(=O)c2c1=O	-4%
Cc1ccc(NC(=O)CCCCCCCCCCC2COCCO2)c(C)c1 (stereo not drawn)	-20%
O=C(COC(=O)c1ccccc1NS(=O)(=O)c1cccs1)NCC12CC3CC(CC(C3)C1)C2	-28%
CNC(=S)N(CCc1c(C)[nH]c2ccc(C)cc12)Cc1cc(OC)c(OC)c(OC)c1	-3%
Cc1nc2ncnn2c(C)c1Cc1c(Cl)cccc1Cl	-10%

Of the compounds above, 4 have an aryl thioether with sulfur outside any ring:
SMILES	HPGD inh
Cc1ccc(-c2nnc(SCC(=O)NNC(=O)COc3cccc4ccccc34)n2C)cc1	-8%
Cc1ccc(Cn2c(SCC(=O)NCC3CCCO3)nc3c(sc4ccccc43)c2=O)cc1 (stereo not drawn)	?
CCn1c(SCC(=O)Nc2ccc3c(c2)OCCO3)nc2c(c1=O)SC(C)C2 (stereo not drawn)	-3%
COc1ccc(C(=O)NCc2nnc(SCC(=O)Nc3nc4ccccc4s3)o2)cc1OC	-8%

Remaining list, next part:
SMILES	HPGD inh
CCOC(=O)c1[nH]c(=O)[nH]c1CSCCO	-6%
CN1C(=O)/C(=C2/C=CC=CN2C)OC1=S	-12%
CCc1nnc(NC(=O)CSc2nccn2-c2ccccc2)s1	-15%
Cc1sc2ncn(CC(=O)NCCc3ccccc3)c(=O)c2c1C	-11%
COC(=O)c1sc(S(=O)(=O)NCc2cccs2)c(C(=O)OC)c1C	-17%
CCN(C)c1ccc(/C=N\n2nnnc2N)cc1	-17%
O/N=C/c1cc(Br)ccc1OCc1cccc(F)c1	-28%
CCCN(CC(=O)Nc1ccc(C(N)=O)cc1)CC(=O)Nc1ccc(Cl)cc1Cl	-7%
Cc1c(CN(C)C(=O)c2sc3cc(Cl)ccc3c2Cl)cnn1C	20µM*
CC1(C)CC(=O)C2=C(C1)OC1=C(C(=O)CC(C)(C)C1)C2c1ccccc1	-3%
COc1ccc(S(=O)(=O)N(CC(=O)Nc2cc(C)on2)Cc2ccccc2)cc1	-9%
Nc1nc2ccc(S(=O)(=O)c3ccc4nc(N)sc4c3)cc2s1	?
COC(=O)c1cccc(C(=O)Nc2ccc(F)cc2)n1	-9%
O=[N+]([O-])c1ccc(CN2CCCCCC2)s1	-5%
CCSc1ncnc2sc3c(c12)CCC3	-12%
Cc1ccccc1CN1CCNC(=O)C1CC(=O)O (stereo not drawn)	-1%
COc1ccc(/C=N/NC(=O)CNC(=O)c2ccc3c(c2)OCCO3)cc1OC	-24%
CN(Cc1ccccc1)C(=O)CCC(=O)N(C)Cc1ccccc1	-9%
CC(CC(=O)NCc1cccnc1)c1ccccc1 (stereo not drawn)	-21%
COc1ccccc1CN(C(=O)Cc1cccs1)C(C(=O)NC1CCCC1)c1ccncc1 (stereo not drawn)	-5%

Arranged by the number under HPGD inh (high to low): 3 of the compounds above
SMILES	HPGD inh
CN(Cc1ccccc1)C(=O)CCC(=O)N(C)Cc1ccccc1	-9%
CCSc1ncnc2sc3c(c12)CCC3	-12%
COc1ccc(/C=N/NC(=O)CNC(=O)c2ccc3c(c2)OCCO3)cc1OC	-24%

Next section
SMILES	HPGD inh
Cc1cccc(N2C(=O)C3C(c4ccccc4)OC4(C(=O)c5ccccc5C4=O)C3C2=O)c1 (stereo not drawn)	-5%
COC(=O)/C(C#N)=C1/C=Cc2ccccc2N1C	-21%
O=S(=O)(C[C@H](O)C(Cl)(Cl)Cl)NNc1ccccc1	-9%
FC(F)Sc1ccc(NC(=S)NC2CCC(NC(=S)Nc3ccc(SC(F)F)cc3)CC2)cc1 (stereo not drawn)	-13%
O=C(NC(=S)Nc1ccc(CN2CCOCC2)cc1)c1ccc([N+](=O)[O-])cc1	-17%
Cc1cccc(-n2ncc3c(NCCN4CCOCC4)ncnc32)c1	-10%
CN(O)/C=c1/ccc2c(n1)C(=O)C=CC=2	-7%
C/C(=N/NS(=O)(=O)c1ccc(Br)cc1)c1ccc(C)o1	-21%
O=C(CSc1cc([N+](=O)[O-])cc(S(=O)(=O)Cc2ccccc2)c1)NC1CC1	22µM*
Cc1cccc(-n2c(SCC(=O)N3CCCC3)nc3n[nH]c(C)c3c2=N)c1	?
COC(=O)c1sccc1NC(=S)N1CCN(c2ccccc2)CC1	-5%
CCCN1C=CC(=C2C(=O)c3ccccc3C2=O)C=C1	-16%
COC(=O)c1ccc(CN(c2ccc(C)cc2)S(=O)(=O)c2ccc3c(c2)OCCO3)o1	-17%
O=C(NCCNS(=O)(=O)c1ccccc1)N1CCOCC1	-10%
O=C(CSc1nc2ccccc2o1)N1CCN(c2ccc(Cl)cc2)CC1	-5%
Cc1cc(C)nc(SCc2n[nH]c(=S)n2C)n1	-28%
Cc1cccc(-c2noc(CN(C(=O)C34CC5CC(CC(C5)C3)C4)C(C)C)n2)c1	-11%
CC1(OC(=O)C2CCCC2)C(=O)C=C2C=C(c3ccsc3)N(C3CCCC3)C=C2C1=O (stereo not drawn)	-5%
Cc1cccc(N2C(=S)N=C(Nc3c(C)cccc3C)C23CCOC(C)(C)C3)c1 (stereo not drawn)	-14%
c1cc(CSc2nnc(-c3ccc4c(c3)OCO4)o2)ccn1	-3%
COc1ccc(C(=O)N[C@H]2COC(C)(C)O[C@H]2c2ccccc2)cc1	-20%
Cc1ccc(CN(C#N)c2nc(C)cc(C)n2)cc1	3%
Cc1ccc(Cn2c(=O)n(-c3ccccc3)c(=O)c3ccc(C(=O)NCc4ccco4)cc32)cc1	-15%
O=C(NC1CCCCC1)C(c1ccc(F)cc1)N(C(=O)Cc1ccsc1)c1ccc(F)cc1 (stereo not drawn)	-6%
CC(C)C(=O)c1cn(CC(=O)NCC2CCCO2)c2ccccc12 (stereo not drawn)	-13%
CC(C)CC(C(=O)O)N1C(=O)[C@@H]2[C@H](C1=O)[C@@H]1C[C@H]2C(Br)C1Br (stereo partly drawn)	-5%
CCCC[C@@H]1C[C@H]1C(NS(=O)(=O)c1cccc2cccnc12)c1ccc(-c2ccccc2)cc1 (stereo partly drawn)	-7%
NS(=O)(=O)c1ccc(Nc2nc(-c3ccc4ccccc4c3)cs2)cc1	-20%
Cc1ccc2nc(/C(C#N)=C/c3ccc(-c4cccc([N+](=O)[O-])c4)o3)[nH]c2c1	25µM*
O=C(c1ccncc1)N(c1ccc2oc3c(c2c1)CCCC3)S(=O)(=O)c1ccc(F)cc1	-15%
CC(C)Nc1nc(NC(C)C)nc(N(C#N)CCOc2ccc(Cl)cc2Cl)n1	-9%
Cc1ccc(N(C(=O)Cn2nnc(-c3ccccc3)n2)C(C(=O)NC2CCCCC2)c2ccccn2)cc1C (stereo not drawn)	-1%
N#C/C(=C/c1cccc([N+](=O)[O-])c1)c1nnc2n1CCCCC2	20µM*
N#Cc1nc(COc2ccc(F)cc2)oc1NCCN1CCOCC1	-4%
CNc1ccc(Br)cc(C(=O)/C=C/c2cc(OC)ccc2OC)c1=O	?
CCN(C(=O)COc1ncnc2ccc(Br)cc12)C1CCS(=O)(=O)C1 (stereo not drawn)	-13%
CC(=O)[C@H]1[C@H](C#N)C[C@H]2[C@@H]3CC=C4C[C@@H](O)CC[C@]4(C)[C@H]3CC[C@@]21C	-5%
COc1cccc(-c2nc(CS(=O)(=O)CC(=O)Nc3c(C)cccc3C)c(C)o2)c1	-6%
NS(=O)(=O)c1ccc(CCNC(=O)c2cncc(Br)c2)cc1	-5%
CC(=NCCN1CCN(C(=S)Nc2ccccc2)CC1)C1=C(O)CC(C)(C)CC1=O	-1%
N#Cc1nc(-c2ccccc2Cl)oc1NCC1CCCO1 (stereo not drawn)	?
O=c1c2cnn(-c3ccccc3)c2nc(-c2cccs2)n1-c1cccc(Cl)c1	?
COc1cc(C)c2c(c1C=O)Oc1c(c(C)c(O)c3c1C(O)OC3=O)OC2=O (stereo not drawn)	20µM*
CC(C)N1CCc2[nH]c(=S)[nH]c(=O)c2C1	-29%
O=S(=O)(/N=C(\c1ccccc1)N1CCOCC1)c1cccs1	2%
O=c1c2c3nc4ccccc4nc3n(CC3CCCO3)c2ncn1CCc1ccccc1 (stereo not drawn)	?
O=C(Nc1nnc(CCS(=O)(=O)c2ccc3ccccc3c2)s1)c1ccc([N+](=O)[O-])cc1	2%
CC(=O)OC1(C(F)(F)F)Oc2ccccc2NC1=O (stereo not drawn)	-5%
O=c1cc[nH]c2c(C(F)(F)F)cccc12	-29%
CC(C)(C)NC(=O)C(c1ccco1)N(C(=O)Cn1nnc(-c2ccc(F)cc2)n1)c1ccccc1F (stereo not drawn)	-22%

(more compounds)
SMILES	HPGD inh
N#C/C(=N\Nc1ccccc1F)C(=N)N1CCCCC1	-23%
O=C1CC(C(=O)Nc2ccc(C(=O)N3CCOCC3)cc2)C2(CCCCC2)O1 (stereo not drawn)	?
Cc1ccc(-n2nnnc2-c2cnc(N3CCCC3)nc2C(F)(F)F)cc1	-23%
CC(=O)Nc1ccc(S(=O)(=O)N2CCN(Cc3ccncc3)CC2)cc1	-5%
O=S(=O)(c1ccccc1C(F)(F)F)N1CCN(S(=O)(=O)c2ccccc2C(F)(F)F)CC1	-7%
Cc1ccc(S(=O)(=O)N2CCCC(C(=O)NCc3ccccn3)C2)cc1 (stereo not drawn)	-19%
CCN(CC)C(=O)C1CCCN(c2ccc([N+](=O)[O-])cc2/C=N/NC(=O)c2cccc(Br)c2)C1 (stereo not drawn)	-25%
Cc1nc2nc[nH]n2c(=O)c1NC(=O)CCc1ccccc1	0%
CC1(C)CC(=O)C2=C(C1)N(c1ccc(F)cc1)C(=O)NC2(C(F)(F)F)C(F)(F)F	-7%
C=CCn1c(Cc2nc3ccccc3[nH]2)n[nH]c1=S	?
COc1ccc(C/C(N)=N/OC(C)=O)cc1OC	0%
CC(=O)c1cn(CC(=O)Nc2ccc(C)cc2)c2ccccc12	0%
